Screening results deposited in PubChem by Broad Institute.
PD-1 reverse act: reversal of PD-1 mediated T-cell inhibition | 29,000 tested, under 10 active | activation, % (concentration not given with the values) | AID 2316 | primary human CD4 T cells, PD-L1 beads, CellTiter-Glo 96 h;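 active = replicate mean of 50% or more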;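 also: 0% = median vehicle wells and 100% = positive control; 100 nL library stock added to about 50 µL; numbers are from one replicate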
MITF inh: MITF inhibition. TRPM1 promoter luciferase, luminescence, 24 h. inhibition, % (concentration not given with the values). 37,000 compounds, 0.28% hits. AID 2240;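 active = most replicates at 85% or more, or half of them and the mean; inconclusive = half reach 85% but not the mean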;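 also: human melanocyte line stably carrying TRPM1 promoter luciferase reporter; 0% = vehicle wells and 100% = a positive control; the first replicate is given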
YB-1 expression: YB-1 expression inhibition | U2OS, qRT-PCR YB-1 vs CDIP delta delta Cp, 16 h; stronger effect = higher value; zero = DMSO, each unit about twofold | 30,000 compounds, 0.37% hits | delta delta Cp (YB-1 minus CDIP) (concentration not given with the values);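 active = delta delta Cp rounded down to an integer at or above 3, about 3 SD of DMSO wells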;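 also: higher means less YB-1 transcript or more CDIP transcript relative to DMSO; stock transfer was 100 nL into about 100 µL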
Shh pathway inh: blocks Sonic Hedgehog signaling. inhibition, % (no concentration beside the values). 22,000 compounds, 2.1% hits. Shh-LIGHT2 Gli-luciferase reporter, 30 h. AID 2313;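 active = replicate mean of 65% or more; inconclusive = mean lower but half the replicates past it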;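 also: pathway switched on by Shh-conditioned medium diluted 1 in 25 in low serum; 100 nL library stock added to about 40 µL; 0% = median of neutral wells and 100% = positive control level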
Active calls of the source: *; u = inconclusive; x = no result given. Only part of the results is shown (hit frequency here may not be typical).

Every second line gives: PD-1 reverse act | MITF inh | YB-1 expression | Shh pathway inh
C[C@H]1CN([C@@H](C)CO)C(=O)Cc2cc(NC(=O)C3CC3)ccc2O[C@@H]1CN(C)C
  0.4 | 1 | 0.31 | 29
C[C@@H]1CN([C@@H](C)CO)C(=O)Cc2cc(NC(=O)CCC(F)(F)F)ccc2O[C@@H]1CN(C)CC1CCCCC1
  0.6 | 2 | -0.11 | 9
COc1ccc2c(c1)CCC1C2CCC2(C)C1C[C@@H](O)C2O (stereo partly drawn)
  x | -24 | -0.57 | 19
C[C@H]1CN([C@@H](C)CO)C(=O)c2cccc(NC(=O)c3cnccn3)c2O[C@@H]1CN(C)C(=O)Nc1ccc(C(F)(F)F)cc1
  -0.8 | 6 | 0.084 | -76
Cc1noc(C)c1S(=O)(=O)Nc1ccc2c(c1)CC(=O)N([C@H](C)CO)C[C@@H](C)[C@@H](CN(C)Cc1ccc(C(=O)Nc3ccccc3N)cc1)O2
  -0.6 | 4 | -0.13 | x
O=C(CSc1nc2[nH]ncc2c(=O)n1-c1ccccc1)Nc1ccc(F)c(Cl)c1
  -4.8 | 61 | x | x
O=C(Oc1ccccc1)c1cccc(COC(=O)c2cc3ccccc3oc2=O)c1
  -1.4 | -52 | x | x
C[C@@H]1CN([C@H](C)CO)C(=O)c2cc(NS(C)(=O)=O)ccc2O[C@H]1CN(C)CC1CCCCC1
  -0.9 | 0 | 0.067 | x
C[C@@H]1CN([C@@H](C)CO)C(=O)c2cccc(NC(=O)CCCCCC(=O)Nc3ccccc3N)c2O[C@@H]1CN(C)Cc1ccccc1
  2.2 | -4 | -0.0057 | x
COc1ccc(S(=O)(=O)N(C)C[C@H]2Oc3c(NC(=O)Nc4ccc(C(F)(F)F)cc4)cccc3C(=O)N([C@@H](C)CO)C[C@@H]2C)cc1
  2.0 | -23 | -0.17 | -92
C[C@H]1CN([C@@H](C)CO)C(=O)c2cccc(NS(=O)(=O)c3cn(C)cn3)c2O[C@@H]1CN(C)Cc1ccc(Oc2ccccc2)cc1
  -0.8 | -8 | -0.55 | 25
C[C@@H]1CN([C@@H](C)CO)C(=O)c2cc(NC(=O)C3CCCCC3)ccc2O[C@@H]1CN(C)S(=O)(=O)c1ccc(F)cc1
  0.4 | -9 | -0.088 | x
C[C@H](CO)N1C[C@H](C)[C@@H](CN(C)Cc2ccc(C(F)(F)F)cc2)Oc2ccc(N(C)C)cc2C1=O
  0.2 | 5 | 0.027 | -8
Cc1ccc(S(=O)(=O)N(C)C[C@@H]2Oc3c(NC(=O)Nc4ccc(C(F)(F)F)cc4)cccc3C(=O)N([C@@H](C)CO)C[C@@H]2C)cc1
  -1.1 | -1 | 0.2 | 93*
Cc1cccc(C(=O)O)c1O
  x | -16 | -0.032 | -13
C[C@@H]1CN([C@H](C)CO)C(=O)Cc2cc(NS(C)(=O)=O)ccc2O[C@H]1CN(C)S(=O)(=O)c1ccc(F)cc1
  x | -6 | -0.055 | x
Cc1noc(C)c1S(=O)(=O)Nc1cccc2c1O[C@H](CN(C)Cc1ccc(Cl)c(Cl)c1)[C@H](C)CN([C@H](C)CO)C2=O
  x | -11 | 0.08 | -45
C[C@@H]1CN([C@@H](C)CO)C(=O)c2cc(NC(=O)CCC(F)(F)F)ccc2O[C@H]1CN(C)S(=O)(=O)c1ccc(Cl)cc1
  0.0 | 10 | -0.69 | x
C[C@@H]1CN([C@@H](C)CO)C(=O)c2cc(N(C)C)ccc2O[C@@H]1CN(C)C
  0.4 | -3 | 0.46 | -15
COc1ccc(N(CC(=O)Nc2cccc(Cl)c2Cl)S(C)(=O)=O)cc1OC
  -0.4 | -15 | x | x
Nc1ncnc(NCC2CCCO2)c1[N+](=O)[O-] (stereo not drawn)
  -0.2 | -23 | x | x
COCCNC(=O)c1ccccc1NC(=O)c1ccc([N+](=O)[O-])cc1
  -1.3 | -32 | x | x
C[C@H](CO)N1C[C@H](C)[C@@H](CN(C)Cc2ccc(Oc3ccccc3)cc2)Oc2c(NS(=O)(=O)c3cn(C)cn3)cccc2C1=O
  x | -1 | -0.29 | 25
Cc1ccc(S(=O)(=O)N(C)C[C@@H]2Oc3c(NC(=O)C4CC4)cccc3C(=O)N([C@H](C)CO)C[C@H]2C)cc1
  1.3 | -1 | 0.24 | -13
COc1ccc(S(=O)(=O)Nc2ccc3c(c2)C(=O)N([C@@H](C)CO)C[C@H](C)[C@@H](CN(C)Cc2ccncc2)O3)cc1
  -14 | -9 | 0.066 | x
COc1ccc(S(=O)(=O)N(C)C[C@H]2Oc3c(NS(=O)(=O)c4ccc(F)cc4)cccc3C(=O)N([C@@H](C)CO)C[C@H]2C)cc1
  -1.1 | 1 | 0.15 | 7
COc1ccc(S(=O)(=O)Nc2ccc3c(c2)C(=O)N([C@H](C)CO)C[C@H](C)[C@@H](CN(C)C(=O)NC2CCCCC2)OCCCC[C@@H](C)O3)cc1
  x | 23 | 0.044 | -5
C[C@@H]1CN([C@@H](C)CO)C(=O)c2cccc(NS(C)(=O)=O)c2O[C@@H]1CN(C)C(=O)Nc1ccc(F)cc1
  2.0 | 5 | -0.38 | -96
CC(C)NC(=O)N(C)C[C@@H]1Oc2ccc(N(C)C)cc2CC(=O)N([C@H](C)CO)C[C@H]1C
  -1.2 | 7 | -0.22 | -29
Cc1noc(C)c1NC(=O)Nc1ccc2c(c1)C(=O)N([C@H](C)CO)C[C@H](C)[C@H](CN(C)S(=O)(=O)c1cccs1)OCCCC[C@@H](C)O2
  1.3 | 17 | -0.55 | -41

Continued.
structure	PD-1 reverse act	MITF inh	YB-1 expression	Shh pathway inh
COc1ccccc1C1CCN(C(=O)CSCc2cccc3ccccc23)CC1	0.4	2	0.27	0
CCOC(=O)c1c(NC(C)=O)sc2c1CCCCC2	1.0	16	-0.0064	-27
C[C@H]1CN([C@@H](C)CO)C(=O)Cc2cc(NC(=O)c3ccncc3)ccc2O[C@@H]1CN(C)C	0.7	5	0.051	40
COc1ccc(S(=O)(=O)Nc2ccc3c(c2)C(=O)N([C@H](C)CO)C[C@@H](C)[C@H](CN(C)C)O3)cc1	0.0	-10	-1.4	x
Cc1noc(C)c1S(=O)(=O)Nc1cccc2c1O[C@H](CN(C)Cc1ccc(-c3ccccc3)cc1)[C@H](C)CN([C@@H](C)CO)C2=O	-0.9	-5	0.14	-27
COc1nsnc1N1CCOCC1	-0.2	2	-0.15	-30
C[C@H]1CN([C@@H](C)CO)C(=O)c2cccc(NC(=O)Nc3cccc4ccccc34)c2O[C@H]1CN(C)CC1CCCCC1	-2.3	9	0.15	51
C[C@H](CO)N1C[C@H](C)[C@@H](CN(C)S(=O)(=O)c2ccc(Cl)cc2)Oc2c(NS(=O)(=O)c3cn(C)cn3)cccc2C1=O	2.1	-11	-0.28	-52
CCOC(=O)C(C)Oc1ccc2c(-c3ccccc3)cc(=O)oc2c1 (stereo not drawn)	-0.8	-11	-0.007	5
C[C@@H]1CN([C@@H](C)CO)C(=O)c2cccc(NS(=O)(=O)c3cn(C)cn3)c2O[C@@H]1CN(C)Cc1ccc(Oc2ccccc2)cc1	x	-3	0.83	-7
CCOC(=O)c1c(NC(=O)CSc2nc(C)cc(C(F)(F)F)n2)sc(C)c1C	0.8	28	x	x
N#C/C(=C\Nc1cnccn1)S(=O)(=O)c1ccc(C(F)(F)F)cn1	0.7	14	-0.19	-13
Cc1cc(C(=O)NCc2ccco2)c2cc(F)ccc2n1	0.3	-14	x	x
C[C@H]1CN([C@@H](C)CO)C(=O)c2cc(NC(=O)Cc3ccccc3)ccc2O[C@@H]1CN(C)S(=O)(=O)c1ccc(F)cc1	-0.4	-1	0.22	20
C[C@@H]1CN([C@H](C)CO)C(=O)Cc2cc(NC(=O)Nc3ccc(F)cc3)ccc2O[C@H]1CN(C)S(=O)(=O)c1ccccc1	x	-9	-0.27	x
O=C(COc1ccccc1[N+](=O)[O-])Nc1ccc2oc(-c3cccc(Cl)c3)nc2c1	3.0	-42	x	x
O=C(CSc1nnnn1-c1ccc(F)cc1F)Nc1ccc2c(c1)OCCO2	0.1	-84	x	x
Cc1ccccc1OCC(=O)Nc1ccccc1C(=O)N1C(C)CCCC1C (stereo not drawn)	0.3	-4	x	x
CCOC(=O)c1c(NC(=O)Cn2cnc3ccccc3c2=O)sc2c1CCCC2	-1.8	-9	x	x
CC(C)NC(=O)Nc1ccc2c(c1)CC(=O)N([C@H](C)CO)C[C@@H](C)[C@H](CN(C)Cc1ccc(C(F)(F)F)cc1)O2	-0.3	7	-0.36	6
c1ccc(-c2nsc(N3CCOCC3)n2)cc1	1.1	20	-0.45	-186
C[C@@H]1CN([C@H](C)CO)C(=O)c2cccc(NS(C)(=O)=O)c2O[C@@H]1CN(C)S(=O)(=O)c1cn(C)cn1	1.6	-4	-0.18	-32
C[C@H]1CN([C@@H](C)CO)C(=O)Cc2cc(NS(=O)(=O)c3ccc(F)cc3)ccc2O[C@H]1CN(C)Cc1ccc(C(=O)Nc2ccccc2N)cc1	-0.9	22	-0.27	x
Cc1noc(C)c1NC(=O)Nc1ccc2c(c1)CC(=O)N([C@H](C)CO)C[C@@H](C)[C@@H](CN(C)CC1CCCCC1)O2	4.2	-9	-0.1	u
CN(C)c1nc(N)nc(CSc2ccccn2)n1	2.5	-21	x	x
CC(=O)Nc1ccc(N2C(=O)CSC2c2ccccc2)cc1 (stereo not drawn)	0.3	-8	0.19	-13
Cc1ccc(NC(=O)CSc2nc3c(c(C(F)(F)F)n2)CCCC3)cc1C	0.2	-10	x	x
COc1ccc(S(=O)(=O)Nc2ccc3c(c2)CC(=O)N([C@@H](C)CO)C[C@@H](C)[C@@H](CN(C)Cc2ccc(C(=O)O)cc2)O3)cc1	-0.4	2	0.077	-13
COc1ccc(C(=O)Oc2ccc(C)c3c2C(=O)OC(C)C3)c2c1C(=O)OC(C)C2 (stereo not drawn)	1.0	-3	-0.2	-8
COc1ccc(S(=O)(=O)N(C)CC(=O)Nc2cccc(F)c2)cc1OC	0.5	-6	x	x
COC1=CC(=O)C[C@@H](C)[C@]12Oc1cc(OC)cc(OC)c1C2=O	1.1	16	0.79	-2
CCc1cccc(CC)c1NC(=S)Nc1ccc(C)cc1	-5.8	3	-0.47	-3
CN1CCN(C(=O)CN(c2cccc(Br)c2)S(=O)(=O)c2ccccc2)CC1	1.7	0	x	x
COc1ccc(NC(=O)N(C)C[C@@H]2OCCCC[C@@H](C)Oc3ccc(NS(=O)(=O)c4ccc(F)cc4)cc3C(=O)N([C@H](C)CO)C[C@@H]2C)cc1	-0.6	6	0.35	45
CC(C)(C)c1ccc(OCC(=O)Nc2cccc(NC(=O)c3ccccc3)c2)cc1	0.3	-32	x	x
C[C@H]1CN([C@@H](C)CO)C(=O)Cc2cc(NC(=O)Nc3ccc(F)cc3)ccc2O[C@@H]1CN(C)S(=O)(=O)c1ccc(F)cc1	-0.4	-11	-0.19	-35

Five compounds picked at random from those above, as already listed:
structure	PD-1 reverse act	MITF inh	YB-1 expression	Shh pathway inh
CC(=O)Nc1ccc(N2C(=O)CSC2c2ccccc2)cc1 (stereo not drawn)	0.3	-8	0.19	-13
COc1ccc(C(=O)Oc2ccc(C)c3c2C(=O)OC(C)C3)c2c1C(=O)OC(C)C2 (stereo not drawn)	1.0	-3	-0.2	-8
CN(C)c1nc(N)nc(CSc2ccccn2)n1	2.5	-21	x	x
COC1=CC(=O)C[C@@H](C)[C@]12Oc1cc(OC)cc(OC)c1C2=O	1.1	16	0.79	-2
CN1CCN(C(=O)CN(c2cccc(Br)c2)S(=O)(=O)c2ccccc2)CC1	1.7	0	x	x

New compounds follow:
structure	PD-1 reverse act	MITF inh	YB-1 expression	Shh pathway inh
C[C@@H]1CN([C@H](C)CO)C(=O)Cc2cc(NS(=O)(=O)c3ccc(Cl)cc3)ccc2O[C@H]1CN(C)Cc1ccc(C(F)(F)F)cc1	x	-4	-0.09	-4
C[C@@H]1O[C@@H](O[C@@H]2[C@@H](O)[C@H](Oc3cc(O)c4c(c3)OC(c3ccc(O)cc3)CC4=O)O[C@H](COC3OCC(O)C(O)C3O)[C@H]2O)[C@H](O)[C@H](O)[C@H]1O (stereo partly drawn)	0.7	5	-0.0018	-27
Cc1noc(C)c1S(=O)(=O)Nc1ccc2c(c1)C(=O)N([C@H](C)CO)C[C@@H](C)[C@H](CN(C)C(=O)NC(C)C)O2	-0.1	-7	0.092	x
CCC(=O)c1ccc(OCC(O)Cn2c(C)nc3ccccc32)cc1 (stereo not drawn)	-1.1	77	x	x
COc1ccc(NC(=O)Nc2ccc3c(c2)CC(=O)N([C@@H](C)CO)C[C@@H](C)[C@@H](CN(C)C(=O)Nc2ccc(F)cc2)O3)cc1	-1.0	-3	-0.027	x
